KCNQ2 enhance: potentiators of rat KCNQ2 potassium channel; AID 2239; CHO-K1 KCNQ2, FluxOR thallium flux fluorescence; stronger effect = higher value; B-score at 10 µM; 310,000 tested, 0.54% active;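 active = fluorescence ratio B-score at least 3 SD of library B-scores, with initial fluorescence B-score within 3 SD, cut at about 5.3 in these data; same plate scores as AID 2156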;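 note: B-score of peak minus minimum over baseline fluorescence ratio after K+ and Tl+ stimulus; positive B-score means potentiation of KCNQ2 with more thallium influx and brighter signal; only the inactives scoring about 0 or higher are listed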
Target sequence (O88943 whole entry, looked up): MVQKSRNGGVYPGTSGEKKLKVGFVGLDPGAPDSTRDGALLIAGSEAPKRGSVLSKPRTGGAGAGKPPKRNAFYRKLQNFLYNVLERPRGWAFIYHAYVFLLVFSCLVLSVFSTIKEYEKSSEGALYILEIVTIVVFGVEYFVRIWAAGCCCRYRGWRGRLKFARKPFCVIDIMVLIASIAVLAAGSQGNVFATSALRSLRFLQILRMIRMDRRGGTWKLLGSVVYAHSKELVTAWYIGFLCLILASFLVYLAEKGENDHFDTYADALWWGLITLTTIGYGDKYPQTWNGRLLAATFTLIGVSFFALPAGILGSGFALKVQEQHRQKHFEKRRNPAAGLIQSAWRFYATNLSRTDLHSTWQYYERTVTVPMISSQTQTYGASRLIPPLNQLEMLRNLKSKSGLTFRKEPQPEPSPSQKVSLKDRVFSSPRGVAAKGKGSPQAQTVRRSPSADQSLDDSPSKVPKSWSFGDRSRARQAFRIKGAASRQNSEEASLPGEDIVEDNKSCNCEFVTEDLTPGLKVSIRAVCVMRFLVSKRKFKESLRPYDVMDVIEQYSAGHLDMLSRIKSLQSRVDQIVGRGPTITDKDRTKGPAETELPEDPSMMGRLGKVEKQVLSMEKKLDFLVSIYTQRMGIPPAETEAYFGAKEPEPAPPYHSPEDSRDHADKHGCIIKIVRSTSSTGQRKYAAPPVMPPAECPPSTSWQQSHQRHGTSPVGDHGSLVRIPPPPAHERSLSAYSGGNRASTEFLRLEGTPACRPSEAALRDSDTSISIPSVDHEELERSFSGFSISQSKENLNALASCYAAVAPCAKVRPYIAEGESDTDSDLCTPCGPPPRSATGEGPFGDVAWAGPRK
KCNQ2 enhance baseline: recorded beside KCNQ2 enhance, whose call it bears; B-score; compound at 10 µM; measured here: initial fluorescence intensity artifact check;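 brightness before thallium and not channel activity; 0 = typical well and far values either way flag optical interference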
Numbers without * were called inactive. The list is partial, so the mix of outcomes need not match the whole.

Every second line gives: KCNQ2 enhance, KCNQ2 enhance baseline
COc1cc(/C=C2\N=C(c3ccccc3)OC2=O)ccc1OCc1c(C)no[n+]1[O-]
  1.4, -0.01
O=C1CCCc2nc(N3CCN(Cc4ccccc4)CC3)ncc21
  1.1, 1.7
CCN(Cc1ccncc1)Cc1nc(Cc2ccccc2Cl)no1
  0.5, 0.25
CN(CC(=O)Nc1c(Cl)cccc1Cl)C(=O)CNC(=O)C1CCCCC1
  2.3, -2
OCCNc1nc(Nc2ccccc2OC(F)(F)F)nc(N2CCCC2)n1
  0.72, -1.1
Cc1ccccc1-c1nc(CS(=O)CC(=O)NCCc2ccc(Cl)cc2)c(C)o1 (configuration not stated)
  0.28, 0.88
C(=N/n1c2ccccc2c2ccccc21)/c1ccco1
  1.4, -0.03
COCCn1c(SCC(=O)N(C)c2c(N)n(Cc3ccccc3)c(=O)[nH]c2=O)nnc1-c1cccc(C)c1
  0.01, 1.9
O=C(O)CC/C(=N\NC(=O)CNC(=O)c1cccc(Cl)c1)c1ccccc1
  1.2, -0.03
CCC1CCCCN1C(=S)Nc1ccc(OC(F)F)cc1 (configuration not stated)
  0.02, -1.7
FC(F)(F)c1nnc2n1N=C(c1cccs1)CS2
  0.52, -0.44
Cc1csc(SCC(=O)Nc2ccccn2)n1
  1.5, -0.04
Cc1cccc(/C=N/NC(=O)Cn2nccc2C)n1
  0.66, 0.41
Cc1c(Br)c([N+](=O)[O-])nn1CC(=O)N(C)Cc1ccccc1
  0.66, -0.8
Cc1ccc(N2C(=O)CC(Sc3cccs3)C2=O)cc1 (configuration not stated)
  0.57, 1.3
Cc1ccc(OCCOCCN2CCN(C)CC2)c([N+](=O)[O-])c1
  0.08, -0.17
CC(=O)Nc1cccc(-c2nc3ccccc3[nH]2)c1
  1.6, -0.37
O=C(NCc1ccccc1)c1ccc2c(c1)C(=O)N(CC1CCCO1)C2=O (configuration not stated)
  0.45, -0.36
Fc1ccc(N2CCN(c3nnnn3-c3ccccc3)CC2)cc1
  0.19, 0.21
COc1ccc(NC(=O)NC(C)(C(F)(F)F)C(F)(F)F)cc1
  1.2, 1
O=C1N[C@@H](Cc2ccccc2)C(=O)N1CCN1CCOCC1
  0.71, -0.18
CCOC(=O)Cn1c(=NC(=O)c2cccs2)sc2cc(C(=O)OC)ccc21
  1.2, -0.07
CCCNC(=O)C12CCC(C)(C(=O)O1)C2(C)C (configuration not stated)
  0.75, 0.13
Nc1nnc(CC2=CCCCC2)s1
  0.26, 2.5
Cc1nc(N2CCOCC2)c2c(C)c(C(=O)Nc3ccccc3C(F)(F)F)sc2n1
  0.16, 1
O=C(COC(=O)C1CCN(S(=O)(=O)c2ccc3c(c2)OCCO3)CC1)NC1CCS(=O)(=O)C1 (configuration not stated)
  0.61, -1.9
CCN(CC)CCCNC(=O)c1ccc(Cl)c(S(=O)(=O)Nc2ccccc2OC)c1
  0.48, 0.34
Cc1ccccc1/C=c1\s/c(=C\C(=O)C(C)(C)C)[nH]c1=O
  0.57, -0.12
Cc1ccccc1OCCOC(=O)c1nc2nccc(C)n2n1
  2.1, -0.02
Cc1cc(C)n(-c2nc3c(c(=O)[nH]c(=O)n3C)n2CC(C)C)n1
  0.01, -0.69
Nc1ccc(Nc2nc3ccccc3[nH]2)cc1
  0.81, 0.52
CCOC(=O)c1ccc(-n2c(N)c(C(=O)NCc3ccco3)sc2=S)cc1
  0.75, 0.79
Cc1ccc(Nc2nc(N)nc(CN3CCCCCC3)n2)c(C)c1
  0.02, -2.2
CCOC(=O)c1cnc2c(C(=O)OC)cccc2c1NCc1ccco1
  0.48, -0.95
O=C(NNC(=O)c1ccc2ccccc2c1O)c1cccs1
  0.68, 1.4
O=C(NC1CCCC1)c1sc(=S)n2c1[nH]c(=O)c1ccccc12
  0.78, -0.83
Cc1ccc(CNS(=O)(=O)c2ccc3c(c2)CCN3C(=O)CCCC(=O)O)cc1
  1.1, 0.93
NNC(=O)Cn1cnc2ccccc21
  0.95, 1.8
CCn1ncc(C(=O)Nc2cc(C)on2)c1C
  0.25, -0.04
CC1(C)CC(=O)c2cc(OCC(=O)NCCCN3CCN(c4ccc(F)cc4)CC3)ccc2O1
  0.01, -0.58
C=CCNc1nc(C(=O)OCC(=O)c2ccccc2)cs1
  0.69, 0.19
O=C(COC(=O)c1c(Cl)ccc(Cl)c1Cl)NC1CCS(=O)(=O)C1 (configuration not stated)
  0.91, -2.2
Cc1cccc(C(=O)NC2CCN(C(=O)NCc3ccccc3)CC2)c1
  1.1, -0.73
COc1cc(-c2c(NC(=O)c3ccco3)oc3ccccc3c2=O)cc(OC)c1OC
  1.4, 0.1
O=C(Nc1ccccc1)N1CCN(c2ccccn2)CC1
  0.11, -1.1
O=[N+]([O-])c1ccccc1/C=C/CN1CCSCC1
  2.4, 0.18
CC(=O)NC(=S)Nc1sc2c(c1C#N)CCCCC2
  0.26, 0.67
C=CCOc1ccn(C)c(=O)n1
  1.6, 0.85
CCC1Sc2ccc(S(=O)(=O)Nc3ccc(OC)cc3)cc2NC1=O (configuration not stated)
  2.6, -1.3
O=C(NN1CC(C(=O)OCc2ccccc2F)CC1=O)c1ccccc1 (configuration not stated)
  3.5, -0.14
CC1=C(Cl)C2=NS(=O)(=O)CCN2C=C1Cl
  1.8, -0.7
CCOc1cc(/C=N\NC(N)=O)cc(Br)c1OC(C)C
  2.3, -0.38
Cc1ccc(N2CCN(c3ccc(NC(=O)CCC(=O)O)cc3)CC2)cc1
  1, -0.4
Cc1cccc(-n2nc(C(=O)c3ccco3)cc(-c3nc4ccccc4[nH]3)c2=N)c1
  1.6, -2.9
COc1ccc(NC(=O)CSc2n[nH]c(-c3ccccn3)n2)cc1
  0.02, 0.22
Cc1ccc(C(=O)CCC(=O)N(C)CC(=O)Nc2ccccc2Br)cc1
  0.01, -0.88
N#Cc1c(Nc2ccccc2)c(C=O)c[nH]c1=O
  0.56, -1.2
CCCOCC(O)CCc1n[nH]c(=S)n1-c1ccccc1 (configuration not stated)
  0.01, -2
CCC(=O)Nc1nc2ccc(NC(=O)COc3ccccc3)cc2s1
  1.2, -0.54
COc1ccc(C(=O)/C=C(\C)Nc2ccc(NC(C)=O)cc2)cc1
  1.5, -1.2

Shown field by field: part of the list above
> CCC1Sc2ccc(S(=O)(=O)Nc3ccc(OC)cc3)cc2NC1=O (configuration not stated)
  KCNQ2 enhance: 2.6
  KCNQ2 enhance baseline: -1.3
> O=C(NN1CC(C(=O)OCc2ccccc2F)CC1=O)c1ccccc1 (configuration not stated)
  KCNQ2 enhance: 3.5
  KCNQ2 enhance baseline: -0.14

One compound at a time (already shown). Order of screens: KCNQ2 enhance | KCNQ2 enhance baseline
O=[N+]([O-])c1ccccc1/C=C/CN1CCSCC1 reads 2.4 | 0.18
CC(=O)NC(=S)Nc1sc2c(c1C#N)CCCCC2 reads 0.26 | 0.67

(next part)
Every second line gives: KCNQ2 enhance, KCNQ2 enhance baseline
O=C(O)c1cc([N+](=O)[O-])ccc1N1CCCCC1
  1.2, -0.35
O=C(O)c1cncc(C#Cc2ccccc2)c1
  0.72, 0
CC1CCN(C(=O)CCC(=O)Nc2nnc(C3CCCCC3)s2)CC1
  0.08, 1.2
COc1cc(C(c2c(C(=O)O)[nH]c3ccccc23)c2c(C(=O)O)[nH]c3ccccc23)ccc1OCc1ccccc1
  0.11, -0.38
C=CCOc1c2ccc(C(=O)NCc3ccc(OC)cc3)cc2nn1C
  0.61, 0.54
O=C(Nc1cccnc1)c1ccc(NS(=O)(=O)c2cccc([N+](=O)[O-])c2)cc1
  0.33, -1.2
COc1cc(S(=O)(=O)N2CCCC3(CCCCC3)C2)ccc1-n1cnnn1
  2.1, -1.4
O=C(Cc1ccc(Br)cc1)N1CCN(c2ccccn2)CC1
  0.91, -1.9
Cc1nc(Nc2ccccc2)sc1C(=O)Nc1ccccc1
  1.3, -1.2
CCOc1cc(N2CCOCC2)c(OCC)cc1NC(=O)CN1C(=O)NC2(CCc3ccccc32)C1=O (configuration not stated)
  0.23, -0.02
O=C(NNC(=O)c1ccco1)c1ccc(NS(=O)(=O)c2cccs2)cc1
  0.23, -0.98
CC(=O)NCCc1ccc(S(=O)(=O)Nc2ccc(C)c(S(=O)(=O)N3CCOCC3)c2)cc1
  0.43, 0.35
COc1ccc(-c2nc(-c3ccc(NC(=O)c4ccncc4)cc3)no2)cc1OC
  0.01, -1.5
CN(C)CCOC(=O)C1(c2ccccc2)CCCC1
  0.14, -0.06
O=C(CSc1nnc(-c2ccc(O)cc2)o1)Nc1ccc2c(c1)OCCO2
  0.09, -1.3
CCc1nnc(NC(=O)/C=C/c2cccs2)s1
  0.69, 3.6
O=c1[nH]c2ccccc2nc1-c1ccc(Cl)cc1
  0.29, -0.59
NNC(=O)C(=O)/C=C1\NC2(CCCC2)Cc2ccccc21
  1.2, -2.3
O=C(NC1CC1)c1scc2c1OCCO2
  0.19, -1.3
CCOc1ccc2nc(NC(=O)CSc3nnc(-c4ccncc4)n3CC3CCCO3)sc2c1 (configuration not stated)
  1.1, -2.1
Cc1ccc(CNS(=O)(=O)c2c(C)[nH]c(C)c2C(=O)N2CCCCC2)o1
  1.5, -1.2
COCC1CCN(C(=O)c2cc(COc3cncc(Cl)c3)on2)C1 (configuration not stated)
  1.2, -0.56
CCOC(=O)c1cc(=O)n2c(nc3ccccc32)[nH]1
  2.2, 0.23
O=C(N/N=C/c1ccncc1)c1ccc(NS(=O)(=O)c2cccs2)cc1
  0.24, -0.03
O=C(CN1C(=O)c2ccccc2C1=O)Nc1ccc(Cl)cn1
  0.84, 1.2
COc1cccc(/C=C2\NC(=O)NC2=O)c1O
  0.51, 0.36
O=C(Nc1cccc(NC(=O)c2ccco2)c1)c1ccc2c(c1)OCO2
  1.1, -0.64
O=C(CCCn1nnc2ccccc2c1=O)N[C@@H](Cc1ccccc1)C(=O)O
  0.23, -0.99
O=C(O)CCSc1ccccn1
  0.13, -0.86
O=C(CN1CCN(c2cccc(Cl)c2)CC1)Nc1ccc(S(=O)(=O)N2CCOCC2)cc1
  0.85, 1.2
Cn1c(NCC2CCCO2)nc2c1c(=O)n(Cc1ccccc1)c(=O)n2C (configuration not stated)
  1.5, -1.3
O=C(Nc1ccccc1Cl)c1cc(S(=O)(=O)N2CCOCC2)cs1
  1.1, 0.16
COc1ccc(CC2(CO)CCN(S(=O)(=O)c3c(C)nn(C)c3Cl)CC2)cc1
  0.63, -2.2
Cn1cc(Br)c(C(=O)NC2CCCCCC2)n1
  0.59, -2.1
Cn1c(C(=O)N2CCCC(C(=O)O)C2)cc2sccc21 (configuration not stated)
  0.03, -1.5
Cc1c(C)n(C)c2ccc(C(=O)NCCCN3CCCC3)cc12
  0.06, -0.52
Cc1ccc(C(=O)CSc2nnc(-c3c[nH]c4ccccc34)o2)cc1
  0.94, -2.2
CCc1nc2sc(C#N)c(N)c2c2c1CCCC2
  1.6, 0.03
CC1CCN(CC(O)COC2CC(C)CC(C)(C)C2)CC1 (configuration not stated)
  0.83, -2.4
O=C(CSc1nnc(-c2ccco2)o1)N1CCCCC1
  1.1, 0.93
COc1ccc(CN(C)S(=O)(=O)c2nnc(NC(=O)c3cccc(OC)c3)s2)cc1
  0.8, -3.6
Cc1cc(NC(=O)COc2ccc(Cl)cc2Cl)n(CCC#N)n1
  1.3, -0.77
O=C(COC(=O)c1sc2ccccc2c1Cl)NC1CCCCC1
  1, 0.13
CC(C)Cc1cc(C(=O)Nc2cccnc2)no1
  0.98, -0.57
CSc1ncccc1C(=O)Nc1nnc(C2CC2)s1
  0.41, 0.81
O=C(Nc1cc(C(F)(F)F)ccc1-n1cncn1)c1ccc(-c2ccccc2)cc1
  0.06, -0.69
O=C1c2ccc3c4c(ccc(c24)C(=O)N1NC(=O)C(F)(F)F)CC3
  1, -2
COc1ccc(/C=C2\Oc3cc(OCC(=O)N4CC(O)C[C@H]4C(=O)O)ccc3C2=O)cc1OC (some centres not stated)
  0.43, 2.1
O=C(O)C(F)=C1c2ccccc2-c2ccccc21
  0.52, -0.38
CCOC(=O)Cc1csc(NC(=O)COc2ccc(C)cc2)n1
  1.7, 0.14
COC(=O)[C@]1(C)N[C@H](c2ccc(-c3ccccc3)cc2)[C@@H]2C(=O)N(C)C(=O)[C@@H]21
  0.83, 0.45
CCCCCCCCSc1n[nH]c(N)n1
  1.6, -0.51
COC(=O)c1sccc1NC(=O)c1ccccc1[N+](=O)[O-]
  0.18, 0.44
Clc1ccc(N2CCN(/N=C/c3ccncc3)CC2)cc1
  1.8, 0.82
CCc1cccc(NC(=S)N(CCN(C)C)C2CCN(C(C)C)CC2)c1
  1.1, -0.4
O=C(NN=C1CCC(=NNC(=O)c2cccnc2)CC1)c1cccnc1
  2.5, -1.1
Cc1ccc(C(=O)N2CCC(n3nccc3NC(=O)C3CCOC3)CC2)cc1 (configuration not stated)
  1.5, -2.3
Cc1ccc(/C=C/C(=O)c2ccc([N+](=O)[O-])o2)cc1
  0.01, -1.1

From PubChem
